Compound activity deposited in PubChem by several laboratories.
Vif A3G – inhibitors of Vif binding to APOBEC3G peptide, primary screen, biochemical, TR-FRET, GST-Vif 1-94, biotin-A3G peptide, dose response retest (AID 1117319) | hit rate 0.57% among 260,000 | inhibition, %; hits with a dose series show IC50 in µM | TR-FRET GST-Vif / biotin-A3G peptide binding; higher % means a stronger effect; test concentration not given here; strong numbers were not always called active;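 active means above the screen mean plus three standard deviations and confirmed in dose response; inconclusive means results disagree or hit not tested in dose response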;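 further: Vif residues 1-94 fused to GST binding biotinylated APOBEC3G peptide 110-148; 0% = full assay without inhibitor and 100% = GST in place of GST-Vif; retest series ran down from 100 µM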
Beta2AR agonist – beta2AR agonists driving receptor internalization, primary screen, cell-based, FAP fluorogen, flow cytometry; Beta-2 adrenergic receptor (Homo sapiens), P07550; Am2.2-beta2AR cells; reference of the scale not given here; response, % (concentration not given with the values); hit rate 0.43% among 340,000; AID 504454, 2011;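 active means response above a set limit, near 3 SD of response in nonfluorescent compounds, cut at about 42% in these data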;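 further: stock transfer was 100 nL into about 11 µL; a reference agonist was the positive control; negative values mostly stem from fluorescent compounds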
Target sequence (P07550 whole entry, looked up): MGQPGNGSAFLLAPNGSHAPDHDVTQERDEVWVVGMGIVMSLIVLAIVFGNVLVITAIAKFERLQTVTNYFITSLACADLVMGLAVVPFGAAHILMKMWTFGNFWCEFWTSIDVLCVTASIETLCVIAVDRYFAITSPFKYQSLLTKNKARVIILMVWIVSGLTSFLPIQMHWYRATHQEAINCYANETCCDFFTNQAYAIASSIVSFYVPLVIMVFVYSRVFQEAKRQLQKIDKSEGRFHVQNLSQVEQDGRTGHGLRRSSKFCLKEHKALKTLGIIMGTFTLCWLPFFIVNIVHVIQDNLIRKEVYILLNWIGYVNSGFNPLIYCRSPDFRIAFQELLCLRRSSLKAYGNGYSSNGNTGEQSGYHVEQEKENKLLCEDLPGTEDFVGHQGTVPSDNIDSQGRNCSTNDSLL
LANA-H2B inh – blockers of LANA interaction with H2A/H2B – biochemical, FP readout, HTS, primary screen; cell-free LANA-H2A/H2B peptide, fluorescence polarization; AID 2629, 2010; inhibition, % (test concentration not listed); hit rate 0.6% among 320,000; in the data active means inhibition mostly above about 10%, no sharp cut-off; inactive means mostly below about 6.7%;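 further: stock transfer was 7.5 nL into about 10 µL; 0% = median of vehicle wells and 100% = median of positive control wells; one replicate is shown; the record names a cut of 25% in any replicate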
HNF4A DNA FP – change in binding of human HNF4A to DNA, primary screen, biochemical, fluorescence polarization, FITC-DNA. Hepatocyte nuclear factor 4-alpha (Homo sapiens), P41235. 1 h. activity change, % at 10 µM. hit rate 0.3% among 360,000. AID 1224865, 2016; in the data active means activity change above about 30%, passing the limit was not always enough;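 further: controls were the assay level and a saturating level of protein; the project sought stronger binding though the title names inhibitors; some compounds called inactive have numbers as strong as hits; positive values seem to mean higher polarization but the record does not say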
RanGTP-Impb inh – inhibitors of RanGTP-importin-beta interaction, primary screen, biochemical, FRET, CFP-Ran, YFP-importin-beta, homogeneous. cell-free CFP-Ran/YFP-importin-beta FRET ratio. inhibition, % (concentration not given with the values). hit rate 1.1% among 300,000. AID 2216, 2009;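 active means most replicates above 15%; inconclusive means exactly half above 15%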;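 further: 0% = DMSO wells and 100% = Ran loaded with GDP instead of GTP; wells of about 40 µL received 100 nL stock; the first replicate is given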
ALR H2O2 inh – inhibitors of human ALR sulfhydryl oxidase, primary screen, biochemical, H2O2 detection, HRP-luminol luminescence, single point; inhibition, % (concentration not given with the values); FAD-linked sulfhydryl oxidase ALR (Homo sapiens), P55789; purified ALR, DTT oxidation; hit rate 3.8% among 290,000;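 active means mean and each replicate at 75% or more; inconclusive means only one of the two met; inactive means neither met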;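 further: stock transfer was 7.5 nL into about 7.5 µL; 0% = neutral wells and 100% = wells with inactivated enzyme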
Target sequence (P55789 whole entry, looked up): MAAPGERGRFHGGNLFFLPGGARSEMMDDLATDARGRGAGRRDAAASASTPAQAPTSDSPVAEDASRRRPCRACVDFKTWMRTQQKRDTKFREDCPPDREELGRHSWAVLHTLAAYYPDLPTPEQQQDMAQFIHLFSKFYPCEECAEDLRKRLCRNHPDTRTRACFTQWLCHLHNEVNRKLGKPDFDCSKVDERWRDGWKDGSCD
Calb FLC – C. albicans growth inhibition with fluconazole, primary screen, CaCi-2 strain, Alamar Blue fluorescence; growth inhibition, % (no concentration beside the values); C. albicans CaCi-2 (fluconazole-resistant clinical isolate) + fluconazole, 48 h; AID 1979, 2009; hit rate 0.57% among 300,000;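 active means most replicates above 75%; inconclusive means exactly half above 75%; inactive means most below 75%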;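 further: all wells also contain fluconazole at 8 µg/ml as a sub-toxic cotreatment; 0% = median of DMSO wells and 100% = median of geldanamycin control wells; wells of about 8 µL received 7.5 nL stock; the first replicate is given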
The depositor's hits bear a star; u = inconclusive; x = no result given; & = joins results of further samples.

SMILES | Vif A3G | Beta2AR agonist | LANA-H2B inh | HNF4A DNA FP | RanGTP-Impb inh | ALR H2O2 inh | Calb FLC
O=C(c1ccc(Cl)c(S(=O)(=O)N2CCOCC2)c1)N1CCN(c2ccccc2)CC1 | x | 2 | 5.5 | 0.6 | -1.8 | 16 | -4
Cc1cccc(NC(=O)CC2SC(=NC3CCCCC3)NC2=O)c1 (stereo not given) | -6% | -2 | 0.4 | 3.3 | 1.4 | -4 | 5
CN(c1ccc(C(=O)NCCc2ccccc2)cc1)S(C)(=O)=O | 4% | -4 | 4.6 | -1.7 | -2.2 | -1 | -2
Cc1cc(NC(=O)CSc2nc(-c3ccco3)cc(C(F)(F)F)n2)n(-c2ccccc2)n1 | -12% | -17 | 1.9 | 2.8 | -1.4 | 0 | -9
CC(C)NCC(O)COCCOc1ccc(Br)cc1 (stereo not given) | u | 6 | 2.9 | 1.3 | 3.5 | -4 | 1
Cc1ccccc1-c1nc(CS(=O)(=O)CC(=O)NCc2ccccc2)c(C)o1 | -11% | 9 | 3.8 | 4.0 | 0.9 | -6 | -2
COc1ccc(C(=O)NCc2ccon2)cc1OC1CCN(C(C)C)CC1 | x | -6 | 2.2 | 2.1 | 3.3 | -1 | 0
Cc1cccc(-n2ncc3c(NCCCn4ccnc4)ncnc32)c1 | 6% | 1 | 0.9 | 0.4 | -0.7 | 18 | 13
COCCOC(=O)C1=C(C)NC(=O)NC1c1c(F)cccc1Cl (stereo not given) | -2% | 2 | -1.1 | -2.1 | 5.7 | -11 | 6
O=C(COC(=O)/C=C/c1ccc(F)cc1)NCc1cccs1 | 3% | 0 | 0.6 | -0.7 | x | -1 | x
COc1ccc(NC(=O)COC(=O)Cc2c[nH]c3ccccc23)cc1OC | 29% | -3 | -2.5 | -1.0 | -3.8 | -6 | 3
C[C@]12C=CC(=O)C=C1CC[C@@H]1[C@@H]2[C@@H](O)C[C@@]2(C)[C@H]1CC[C@]2(O)C(=O)COC(=O)CCC(=O)NCCc1ccc(O)cc1 | -6% | 1 | 3.0 | 3.2 | 0.3 | 55 | 2
CCC(NC(=O)c1ccncc1)c1ccccc1 (stereo not given) | 1% | -3 | 1.1 | -0.2 | -1.7 | -17 | 3
O=C(NCc1ccco1)c1cc(-c2cccs2)nc2ccccc12 | 2% | -6 | 4.5 | 0.8 | -0.2 | 0 | 0
CC1(C)Cc2c(C#N)c(SCC(=O)c3ccccc3)nc(N3CCOCC3)c2CO1 | 12% | 11 | -6.0 | 7.3 | x | 1 | 17
CCOc1ccccc1CN1CCN(Cc2ccc(C)o2)C(CCO)C1 (stereo not given) | 10% | -3 | -1.1 | 2.5 | 0.9 | 0 | -22
Cn1nc(-c2ccccc2)cc1NS(=O)(=O)c1ccccc1 | 6% | -4 | 0.6 | 0.1 | 4.6 | 1 | 1
O=C(NC1CCCCC1)c1ccc(S(=O)(=O)NCc2cccnc2)cc1 | 7% | -1 | -1.4 | -0.1 | -0.8 | -2 | -5
CCOC(=O)Cc1csc(NC(=S)NC(=O)c2ccccc2Br)n1 | u | -3 | 0.5 | -1.1 | -0.8 | 6 | 5
COCCNC(=O)CN1CCC(NC(=O)Nc2ccccc2)CC1 | u | -1 | 3.1 | 2.0 | 6.1 | -15 | 18
COc1ccc(C(=O)C2CCCN(C3Cc4ccccc4C3)C2)c(OC)c1 (stereo not given) | 1% | 0 | 4.1 | 7.9 | -2.9 | -3 | u
O=C(NCCNc1ccc([N+](=O)[O-])cc1)c1ccco1 | x | -14 | -0.2 | -4.8 | 0.2 | 3 | -4
O=C(c1ccc(CN2CCc3ccccc3C2)cc1)N1CCCCC1 | 6% | 4 | 2.0 | -1.3 | -0.3 | -15 | 0
COc1ccc2cnn(-c3ccccc3)c(=O)c2c1OC | 18% | 3 | -9.1 | -1.9 | 0.5 | -13 | 0
CCOC(=O)CS(=O)(=O)c1ccc2ccccc2c1 | 72% | -2 | 0.8 | 0.9 | 3.2 | -14 | 5
CC(=O)N1CCC(N(CCN2CCOCC2)C(=S)Nc2cccc(C)c2)CC1 | x | -3 | -0.9 | -0.9 | 3.1 | -4 | -2
CN1CCN(S(=O)C23CC4CC(CC(C4)C2)C3)CC1 (stereo not given) | 22% | -6 | 0.7 | 1.3 | 3.4 | 1 | -2
O=C(Cc1ncon1)Nc1ccc(F)c(F)c1F | x | 8 | -10 | -0.8 | 2.4 | -10 | 0
CN(CCO)C1=CC(=O)CC(C)(C)C1 | 8% | 1 | 5.0 | 4.1 | -0.9 | 0 | -6
COc1cccc2c1OCC(CN1CCN(C3CCCCC3)C(CCO)C1)=C2 (stereo not given) | u | 1 | -2.4 | -2.1 | -2.6 | -10 | -22
CN(CC(=O)Nc1cccc(F)c1)C(=O)c1cc(-c2ccco2)nc2ccccc12 | 4.8µM* | 10 | 2.8 | -16 | -8.6 | 14 | 0
O=C1CCC(C(=O)O)N1 (stereo not given) | x | -5 | 5.0 | 0.3 | -0.1 | -10 | 3
C#CCOCCOCCOCCNc1nc(N2CCN(C(=O)CCCCCCCCCCNC(=O)[C@H](CCCCN)n3cc(CCCC(=O)O)nn3)CC2)nc(N2CCN(C(=O)CCCCCCCCCCNC(=O)[C@H](CCCCN)n3cc(CCCC(=O)O)nn3)CC2)n1 | x | 2 | -3.5 | -0.2 | 1.0 | -5 | 2
CC(=O)N1CCC(C(=O)OCc2ccccc2F)(c2ccccc2)CC1 | x | -2 | -7.0 | 1.6 | 1.8 | 0 | 3
COc1ccc(F)cc1S(=O)(=O)NCC(c1ccc2c(c1)OCO2)N1CCN(C)CC1 (stereo not given) | -3% | 3 | 1.6 | -1.1 | 2.6 | -5 | -4
COc1ccc(NC(=O)c2ccsc2NC(C)=O)cc1 | 8% | 2 | -4.0 | 15 | -4.1 | 20 | 3
S=C(NCCSCc1ccc(Cl)cc1Cl)Nc1ccccc1 | 1% | 16 | 7.2 | -1.2 | 1.9 | 30 | -18
O=C(Nc1ccc(Br)cc1)c1cc(-c2ccncc2)nc2ccccc12 | 3% | 1 | 0.3 | 9.6 | x | -1 | x
COc1ccc(NC(=O)CN2CCC(C)CC2)c([N+](=O)[O-])c1 | 2% | 5 | 2.1 | -1.7 | -3.9 | -4 | u
CCCCCCCC(=O)NN1CCOCC1 | 0% | 4 | 4.0 | -0.9 | 3.6 | -3 | -3

One compound at a time, from the list above. Screens in order: Vif A3G	Beta2AR agonist	LANA-H2B inh	HNF4A DNA FP	RanGTP-Impb inh	ALR H2O2 inh	Calb FLC
Record of S=C(NCCSCc1ccc(Cl)cc1Cl)Nc1ccccc1 = 1%	16	7.2	-1.2	1.9	30	-18
Record of COc1ccc(F)cc1S(=O)(=O)NCC(c1ccc2c(c1)OCO2)N1CCN(C)CC1 (stereo not given) = -3%	3	1.6	-1.1	2.6	-5	-4
Record of CN(CC(=O)Nc1cccc(F)c1)C(=O)c1cc(-c2ccco2)nc2ccccc12 = 4.8µM*	10	2.8	-16	-8.6	14	0
Record of COc1ccc(NC(=O)c2ccsc2NC(C)=O)cc1 = 8%	2	-4.0	15	-4.1	20	3
Record of CCCCCCCC(=O)NN1CCOCC1 = 0%	4	4.0	-0.9	3.6	-3	-3

New compounds follow.
SMILES | Vif A3G | Beta2AR agonist | LANA-H2B inh | HNF4A DNA FP | RanGTP-Impb inh | ALR H2O2 inh | Calb FLC
O=C1CCCN1c1ccc(S(=O)(=O)Nc2ccc3c(c2)OCCO3)cc1 | 2%&4% | -8 | 3.0 | 3.8 | 2.9 | -6 | 3
c1ccc2nc(-c3ccc(-n4ccnc4)cc3)ccc2c1 | x | 11 | 0.1 | 0.8 | -2.8 | x | 3
COc1ccc(C2CC(c3cccs3)=NN2C(=O)CSc2nc3c(cnn3-c3ccccc3)c(=O)[nH]2)cc1 (stereo not given) | -5% | -9 | 1.7 | -1.6 | -4.0 | -30 | 9
O=C(Cc1ccc(F)cc1)N/N=C/c1ccncc1 | x | 3 | 0.8 | 3.0 | u | -4 | -11
COC(=O)Cc1ccc(NC(=S)Nc2ccccn2)cc1 | u | 0 | -2.9 | 1.6 | 1.3 | -12 | 0
CN1CCN(S(=O)(=O)c2ccc(-c3noc(C4CCN(S(C)(=O)=O)CC4)n3)cc2)CC1 | 3%&3% | 4 | -7.0 | 5.0 | u | -1 | -18
CCOC(=O)c1c(NC(=O)CCS(=O)(=O)c2ccccc2)sc2c1CCN(C(C)C)C2 | x | 5 | -1.1 | 0.7 | 127* | -8 | 7
Fc1ccccc1N1CCN(CC2CC3C=CC2C3)CC1 (stereo not given) | 2% | 7 | -1.7 | 0.5 | -1.0 | x | -16
Cc1cccc(C)c1OCC(O)CNC(C)(C)C (stereo not given) | -2% | 8 | -0.8 | -6.9 | -0.8 | 1 | -10
COc1ccc(OC)c(NC(=O)c2cnc(Nc3ccccc3OC)c3ccccc23)c1 | -10% | 12 | -7.6 | 2.7 | -1.0 | 1 | 18

Some of these compounds in order of molecular weight, smallest number first:
SMILES | Vif A3G | Beta2AR agonist | LANA-H2B inh | HNF4A DNA FP | RanGTP-Impb inh | ALR H2O2 inh | Calb FLC
O=C(Cc1ccc(F)cc1)N/N=C/c1ccncc1 | x | 3 | 0.8 | 3.0 | u | -4 | -11
c1ccc2nc(-c3ccc(-n4ccnc4)cc3)ccc2c1 | x | 11 | 0.1 | 0.8 | -2.8 | x | 3
Fc1ccccc1N1CCN(CC2CC3C=CC2C3)CC1 (stereo not given) | 2% | 7 | -1.7 | 0.5 | -1.0 | x | -16
COc1ccc(OC)c(NC(=O)c2cnc(Nc3ccccc3OC)c3ccccc23)c1 | -10% | 12 | -7.6 | 2.7 | -1.0 | 1 | 18

Continuation.
SMILES | Vif A3G | Beta2AR agonist | LANA-H2B inh | HNF4A DNA FP | RanGTP-Impb inh | ALR H2O2 inh | Calb FLC
O=C(NN1CCCCC1)c1cccc(COc2ccc(Cl)cc2)c1 | 2% | 2 | -7.0 | -0.6 | -0.5 | -2 | -16
C=CCc1c(C)nc2cc(-c3ccc(C)cc3)[nH]n2c1=O | x | -7 | -4.3 | 2.0 | 1.1 | -5 | 23
COC(=O)c1cc(NS(=O)(=O)c2ccc(N3CCCCC3)c([N+](=O)[O-])c2)cc(C(=O)OC)c1 | 1% | -12 | 3.3 | -1.3 | -1.6 | -7 | 11
OCCn1ccc(-c2ccccc2OCc2ccc(F)cc2)n1 | 1% | 12 | 2.6 | -1.8 | 7.0 | -5 | 8
O=C(/C=C\N1CCOCC1)c1ccc(Br)cc1 | x | 1 | 4.5 | -0.9 | -1.4 | x | -15
O=C1OC(N2C(=O)CC[C@H]2C(=O)Nc2ccc3c(c2)OCO3)c2ccccc21 (stereo not given in full) | x | 5 | 0.6 | -1.3 | u | -15 | -11

Not a hit list, and some 6.3% of all compounds hit somewhere here.
